TSHR agonist = agonists of human thyroid stimulating hormone receptor | HEK293-CNG-TSHR cells (CNG channel as cAMP sensor), membrane potential dye, cAMP | Potency, µM (doses to about 57.1 µM), without a hit: at the highest dose activation, hits mostly activators | 73,000 compounds, 0.48% hits | P16473; active = well fitted activation curve of enough size with the parental cells flat; inconclusive = any curve in the parental cells; inactive = parental cells flat and receptor cells flat or falling; note: potency is the fitted concentration of half-maximal effect; % of control where 0% means no effect; weak receptor curves with flat parental cells got no call and are not listed
Target sequence (P16473 whole entry, looked up): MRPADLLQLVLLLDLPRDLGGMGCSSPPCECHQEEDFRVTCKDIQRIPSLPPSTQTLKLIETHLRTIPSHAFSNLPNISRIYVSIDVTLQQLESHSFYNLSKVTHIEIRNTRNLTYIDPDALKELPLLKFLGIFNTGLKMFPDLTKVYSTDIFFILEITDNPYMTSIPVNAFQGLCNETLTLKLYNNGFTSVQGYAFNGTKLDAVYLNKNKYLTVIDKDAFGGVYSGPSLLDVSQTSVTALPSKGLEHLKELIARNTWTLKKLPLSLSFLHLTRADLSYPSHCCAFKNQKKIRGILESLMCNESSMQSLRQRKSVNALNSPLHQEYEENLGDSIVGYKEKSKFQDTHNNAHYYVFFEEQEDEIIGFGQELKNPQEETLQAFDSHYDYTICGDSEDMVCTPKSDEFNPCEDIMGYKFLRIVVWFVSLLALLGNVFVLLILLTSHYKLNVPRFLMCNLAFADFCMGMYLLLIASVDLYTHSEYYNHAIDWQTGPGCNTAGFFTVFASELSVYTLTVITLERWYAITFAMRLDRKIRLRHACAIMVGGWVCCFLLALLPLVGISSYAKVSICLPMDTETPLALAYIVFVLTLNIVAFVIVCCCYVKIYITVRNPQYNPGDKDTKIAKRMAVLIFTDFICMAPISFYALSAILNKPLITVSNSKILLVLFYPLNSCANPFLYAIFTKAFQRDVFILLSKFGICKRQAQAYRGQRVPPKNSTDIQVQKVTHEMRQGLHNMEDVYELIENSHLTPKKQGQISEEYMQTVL
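HEK 293 cells stably expressing TSHR and a cAMP-gated CNG channel; parental CNG-only cells as counterscreen. Cells preloaded 60 min with membrane potential dye plus 100 uM RO 20-1724, then compound 30 min; fluorescence read at 590 nm.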
Resorufin fluor = resorufin region autofluorescence | max dye-equivalent concentration, M | 59,000 compounds, 0.04% hits | Compound fluorescence, resorufin region 547/598 nm, buffer; hits give high values | AID 588; active = above 10 nM dye equivalent; inconclusive = 1 to 10 nM; inactive = 1 nM or less; a few of its hits are not listed in these tables; note: highest value over a series up to 38 µM
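Compounds in 100 mM Tris buffer, pH 8.0, incubated 15 min at room temperature, then read with 547 nm excitation and 598 nm emission filters. Fluorescence was converted to dye-equivalent concentration using an on-plate six-point resorufin standard curve.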
A488 autofl = compound fluoresces in the A488 spectral region; max dye equivalency, M; compound autofluorescence, A488 spectral region, dye equivalency; hits give high values; 59,000 compounds, 0.1% hits; active = above 10 nM dye equivalent; inconclusive = 1 to 10 nM; inactive = 1 nM or less; about half of its hits are not listed in these tables;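 note: highest value over a series up to 38 µM; compound alone in buffer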
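Spectroscopic profiling in the A488 region: compounds in pH 8.0 Tris (100 mM), 15 min RT, CCD imaging with 480 nm excitation and 540 nm emission; responses normalized against A488 dye standards.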
A647 autofl = compound fluoresces in the A647 spectral region | 59,000 tested, under 10 active | AID 592 | Compound fluorescence, A647 channel (570/671 nm), Tris buffer | max dye-equivalent concentration, M; active means above 1 µM dye equivalent; inconclusive means 0.1 to 1 µM; inactive means 0.1 µM or less;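 note: values scaled relative to a standard on each plate; highest value over a series up to 38 µM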
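Compound fluorescence was measured in 100 mM Tris buffer, pH 8.0, after 15 min at room temperature, using 570 nm excitation and 671 nm emission filters. Signal was normalized to a per-plate Alexa 647 standard curve and expressed as dye-equivalent concentration at each compound concentration.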
AID923 = qHTS Assay for Allosteric/Competitive Inhibitors of Caspase-1: Spectroscopic Profiling in AFC Spectral Region | compound fluorescence, AFC spectral region (405/520 nm); almost no hit is shown here | Potency, µM (doses to about 57.5 µM), for the others: at the highest dose fluorescence increase, hits mostly activators | 75,000 compounds, 1.1% hits | AID 923, 2007; active = well fitted activation curve with a large enough effect; inconclusive = small, poorly fitted or top-dose-only effect;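 note: potency is the fitted concentration of half-maximal effect; 0% is about no effect; scaled to a free AFC standard on each plate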
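Compound autofluorescence profiled at 405 nm ex/520 nm em during kinetic caspase 1 run (50 nM enzyme, 5 uM Ac-WEHD-AFC, HEPES pH 7.5, 10 mM DTT). Titration up to 57 uM; baseline from regression intercept, normalized to AFC standard curve.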
Starred values were filed as active, the others as inactive; i = inactive; ? = inconclusive; / = no result given; [ ] = remark or other dose.

Compound,TSHR agonist,A488 autofl,AID923,Resorufin fluor,A647 autofl
Cc1ccc(N=C(c2cccs2)N2CCOCC2)cc1,/,i,0.2%,i,4.2e-09
CS(=O)(=O)N1CCC2(CCN(Cc3nccs3)CC2)CC1,1%,i,2.0%,i,2e-08
O=C(COC(=O)C1c2ccccc2Oc2ccccc21)Nc1ccc2c(c1)OCO2,25µM*,i,1.9%,i,1.9e-08
Fc1ccc(Cc2nnc(-c3cccs3)o2)cc1,3%,/,2.5%,/,/
O=C(COC(=O)Cc1cn2ccsc2n1)NC12CC3CC(CC(C3)C1)C2,6%,i,-0.1%,i,1e-09
O=C(CCC1CCCCC1)NCc1ccncc1,18%,i,0.1%,i,1e-09
Cc1nc(SCC(=O)Nc2c(C)n(C)n(-c3ccccc3)c2=O)[nH]c(=O)c1Cc1ccccc1,7%,i,-0.3%,i,2.8e-09
COc1ccc(N(CC(=O)NCc2ccccc2)S(=O)(=O)c2c(C)noc2C)cc1,13%,i,-0.7%,i,1.1e-08
Cc1cc(NC(=O)COC(=O)c2n[nH]c3ccccc23)no1,-3%,i,0.6%,i,3.9e-09
Cn1c(CSc2ncn[nH]2)nc2ccccc21,/,i,/,i,8.8e-08
Cc1cc2c3c(c1C)C1(C(=O)N3C(C)(C)CC2C)C(C#N)=C(N)Oc2n[nH]c(C)c21 (configuration not stated),7%,i,-0.6%,i,1.2e-08
CCc1cc2c(=O)c(-c3ccon3)c(N)oc2cc1OC,14%,i,-2.0%,i,2.3e-08
N#Cc1nc(-c2cccs2)oc1NCCCN1CCOCC1,0%,i,0.9%,i,1e-09
c1ccc(OCCCn2nnc(-c3ccncc3)n2)cc1,?,i,2.1%,i,8e-09
CCOC(=O)c1c(C)nc(-c2ccccc2)nc1NC(=O)CC,?,i,0.2%,i,1e-09
COc1ccc(-c2cc3nc4c(c(=O)n3[nH]2)CCC4)cc1,-9%,i,-0.3%,i,1e-09
O=C(CSc1nnnn1-c1cccc2ccccc12)N1CCOCC1,0%,i,-0.5%,i,1.9e-08
Cc1cc(Nc2ccc(F)cc2)n2nc(C)nc2n1,2%,/,4.4%,/,/
CCC(O)C(C)(C)C (configuration not stated),?,/,7.2%,/,/
CCC1CCCCN1C(=O)CSc1nnc(-c2ccco2)o1 (configuration not stated),1%,i,2.6%,i,2.9e-09
CN(C)c1ccc(NC(=O)Nc2cccc(Cl)c2)cc1,-35%[inhibitor],i,-0.4%,i,4.7e-09
CNc1nc(-c2ccc(C(=O)N(C)C)cc2)nc2ccccc12,-3%,i,0.3%,i,2.4e-09
CC(C)(C)NC(=O)c1ccc2c(c1)C(=O)N(C1CCCCC1)C2=O,16%,i,-1.1%,i,1e-09
CCc1nnc(NC(=O)c2ccc(S(=O)(=O)N3CCOCC3)cc2)s1,0%,/,0.4%,/,/
CCOC(=O)C(C)(C)Sc1nc2c(cnn2-c2ccc(C)cc2)c(=O)[nH]1,19%,i,-1.3%,i,2.6e-08
Cc1nccn1CCC(=O)O,-2%,i,-2.3%,i,2.9e-09
Cc1cc(NC(=O)CSc2nc(-c3ccccc3)c(C#N)c(=O)[nH]2)no1,4%,i,2.3%,i,3.1e-09
O=C1CS/C(=C/C(=O)c2ccccc2)N1,-1%,/,2.1%,/,/
Cc1[nH]c(C)c2c(=O)n(-c3ccccc3)ncc12,4%,/,3.8%,/,/
CCN(CC)C(=O)CSc1nc2ccccc2c(=O)n1-c1cccc(OC)c1,?,i,-1.0%,i,1e-09

Following part
Compound,TSHR agonist,A488 autofl,AID923,Resorufin fluor,A647 autofl
O=C(NCc1ccco1)c1cc2n(n1)C(C(F)(F)F)CC(c1ccc(Cl)c(Cl)c1)N2 (configuration not stated),-14%,i,-0.3%,i,1e-09
CCOC(=O)N1CCC(NC(=O)C2CCN(c3ccc(N4CCOCC4)nn3)CC2)CC1,?,i,16%,i,1e-09
O=C(O)CCc1ccc(-c2ccc(F)cc2)n1Cc1ccco1,4%,i,0.1%,i,2.6e-08
COCCn1c(SCC(=O)c2[nH]c(C)c(C(C)=O)c2C)nc2ccccc21,1%,i,-0.4%,i,1.8e-08
CCNCCNC(=O)c1c(O)c2cccc3c2n(c1=O)CCC3,?,i,0.0%,i,1e-09
CC(C)CCn1c(N2CCC(C(N)=O)CC2)nc2c1c(=O)[nH]c(=O)n2C,?,i,0.2%,i,1e-09
Cc1cc(C(=O)OCC(=O)N2CCN(C(=O)c3ccco3)CC2)c(C)n1-c1ccc(F)cc1,/,i,-0.1%,i,3.6e-09
O=C(Cn1nc(-c2ccccc2)c2ccccc2c1=O)Nc1ccccn1,?,/,0.5%,/,/
Cc1cc(C)nc(N2CCCC(C(=O)Nc3ccc4c(c3)OCO4)C2)n1 (configuration not stated),2%,i,0.8%,i,1.7e-09
COc1ccc(OCC(=O)Nc2ccccc2OC(F)F)cc1,20%,i,16%,i,3.2e-09
CCCOC(=O)c1ccc(-n2nnnc2SCC(=O)N2CCCCC2)cc1,?,/,-0.4%,/,/
CC1(C)CC(=O)C=C(NCc2cccs2)C1,20%,/,-3.2%,/,/
CC1(C)Cc2c(C#N)c(SCc3ccccc3)nc(N3CCOCC3)c2CO1,14%,/,3.1%,/,/
CC(=O)c1cccc(NC(=O)N2C3CCC2CC(O)(c2cccnc2)C3)c1 (configuration not stated),5%,i,-1.2%,i,1e-09
CC(C)(C)c1cc(NS(=O)(=O)c2ccc3c(c2)OCCO3)on1,5%,i,-0.7%,i,1.6e-08
CCC(NC(=O)c1ccccc1NC(=O)c1ccccc1)C(=O)O (configuration not stated),1%,i,-1.4%,i,1e-08
COc1ccccc1NC(=O)Cn1c(=O)oc2ccccc21,6%,i,-2.6%,i,9.7e-09
Cc1ccc(N=Nc2ccc(N)cc2C)c(S(N)(=O)=O)c1,2%[11.4 µM],i,-1.5%[11.5 µM],i,1.3e-08
O=C(CSc1nc2ccccc2c(=O)n1Cc1ccco1)N1CCN(c2ccccc2)CC1,?,i,-1.6%,i,3.4e-09
COC(=O)NC(c1ccc2ccccc2c1)C(C(C)=O)C(=O)OC (configuration not stated),12%[11.4 µM],/,0.6%[11.5 µM],/,/
O=C(Cc1ccccc1)Nc1nnc(-c2ccco2)s1,-10%,i,0.5%,i,2.5e-08
CCn1c(=O)c(C(=O)NCCCO)c(O)c2ccccc21,7%,i,0.4%,i,1e-09
COc1cccc(-c2nn3c(-c4ccco4)nnc3s2)c1,/,i,/,i,4.6e-09
O=C(O)C1CCCN(S(=O)(=O)c2ccc(F)cc2)C1 (configuration not stated),-3%,/,4.8%,/,/
CCS(=O)(=O)c1ccc(S(=O)(=O)CC)s1,1%,/,2.5%,/,/
COc1ccc(N2C(=O)CC(NCc3ccncc3)C2=O)cc1 (configuration not stated),-1%,i,-0.7%,i,2e-08
CN1CCN(S(=O)(=O)c2ccc(N)cc2)CC1,-4%,/,-2.9%,/,/
Cc1cccc(OCc2nnc(SCC(=O)c3ccccc3)o2)c1,?,i,-0.9%,i,2.4e-09
Cc1ccc(C2C(=O)N(C3CCCC3)CC(=O)N2CC2COc3ccccc3O2)cc1 (configuration not stated),/,i,-1.8%,i,4.4e-09
CCOC(=O)c1oc2cc(O)ccc2c(=O)c1-c1csc(C)n1,1%,i,-1.2%,i,1.7e-08

Other structures.
Compound,TSHR agonist,A488 autofl,AID923,Resorufin fluor,A647 autofl
CCN(CC)C(c1ccc(C)cc1)c1nnnn1C1CCCCC1 (configuration not stated),?,i,1.4%,i,2.2e-09
O=C(CCN1CCC(c2ccccc2)C1)c1cccs1 (configuration not stated),?,i,2.2%,i,2.9e-09
CCOc1cc(C(=O)Nc2ccc(S(=O)(=O)N3CCOCC3)cc2)cc(OCC)c1OCC,3%,i,-0.2%,i,2.9e-08
CCCc1cc(Nc2c(C)n(C)n(-c3ccccc3)c2=O)n2c(nc3ccccc32)c1C#N,/,i,/,i,9.2e-08
CCOc1ccccc1CN1CCN(S(C)(=O)=O)CC1,9%,i,-0.9%,i,5.4e-09
Nc1nc(OCC(F)(F)F)cc(Oc2ccccc2F)n1,8%[11.4 µM],/,-3.0%,/,/
CCOc1ccc(CNC(=O)CCn2c(=O)oc3ccccc32)cc1,-3%,i,1.9%,i,1e-09
Fc1ccc(OCCOCCNCC2CCCO2)cc1 (configuration not stated),/,i,/,i,3.3e-08
CCNC(=O)[C@H]1O[C@H](n2cnc3c(N)nc(NCCc4ccc(CCC(=O)O)cc4)nc32)[C@@H](O)[C@@H]1O,17%,/,-1.1%,/,/
Cc1nc(C)c2c(=O)cc(-c3ccccc3)[nH]c2n1,-2%,i,1.0%,i,1e-09
COc1ccc(NC2CC(=O)N(C)C2=O)cc1 (configuration not stated),/,i,/,i,9.8e-09
O=C(CSc1nnc(CNC(=O)c2c(F)cccc2Cl)o1)Nc1ccc2c(c1)OCCO2,-3%[11.4 µM],i,0.9%,i,4.2e-09
COc1cccc(NC(=O)c2ccc(S(=O)(=O)N3CCCCC3)cc2)c1,0%,/,-0.7%,/,/
CC(=N/O)/C(=N\O)c1ccc(C)o1,-12%,i,-1.4%,i,2.2e-09
C=CCn1c(SCCN2CCOCC2)nc2c1c(=O)[nH]c(=O)n2C,-3%,i,-0.1%,i,1e-09
O=S(=O)(NC1CC1)c1ccc(S(=O)(=O)N2CCCc3ccccc32)cc1,/,i,-0.8%,i,4.9e-09
C[C@H](CCC(=O)O)[C@H]1CC[C@@H]2[C@@H]3CC[C@H]4C[C@@H](O)CC[C@@]4(C)[C@@H]3C[C@H](O)[C@@]21C,0%[11.4 µM],i,-3.3%[11.5 µM],i,1e-09
Cc1cccc(-n2ncc(C#N)c2N)c1,-9%,i,-0.9%,i,1e-09
Cn1c2ccc(F)cc2c2ncn(CCN3CCOCC3)c(=O)c21,3%,i,6.3%,i,3.8e-09
COc1ccc(OC)c(C(=O)CN2CCN(S(=O)(=O)c3ccc(Br)cc3)CC2)c1,-11%,/,1.4%,/,/
c1ccc(-c2nnc3sc(Cc4cccs4)nn23)cc1,/,i,/,i,3.9e-08
Cc1c(C(=O)NCc2ccccn2)oc2ccc(S(=O)(=O)N3CCOCC3)cc12,?,i,-0.3%,i,2.1e-08
COc1ccc(CNC(=O)C(C)N(Cc2ccco2)C(=O)c2snc(C(N)=O)c2N)cc1 (configuration not stated),/,i,2.4%,i,5.1e-09
CCCc1[nH]nc2c1C(c1c(C)nn(-c3ccccc3)c1Cl)C(C#N)=C(N)O2 (configuration not stated),/,i,/,i,?
COC(=O)[C@@]1(Cc2ccc(OC)cc2)[C@H]2c3cc(C(=O)N(C)C)n(Cc4nc5ccccc5[nH]4)c3C[C@H]2CN1C(=O)c1ccccc1,?,/,0.9%,/,/
CC1=C(C(N)=O)C(c2ccc(C)o2)C(C(N)=O)=C(C)N1,13%,i,-0.1%,i,1e-09
COC(=O)c1ccc(COc2ccc(-c3nn[nH]n3)cc2)cc1,3%[11.4 µM],i,-1.1%,i,1e-09
CC1(C)Cc2ccccc2-c2nnc(-c3ccc(O)cc3)n21,9%,i,0.5%,i,4.9e-09
CCOCCCNC(=O)Cc1ccc(OC)c(OC)c1,0%,i,-0.1%,i,1e-09
C=CCn1c(COc2ccccc2)nnc1SCC(=O)O,-1%,i,-1.1%,i,1.3e-08

Compound activity: PubChem BioAssay, National Center for Advancing Translational Sciences (NCATS)

This is a subset, so the mix of outcomes need not match the whole.
